# VDR inhibitor – Inhibitors of the vitamin D receptor (VDR): qHTS; Potency, µM, for the others: max response, negative = inhibition, usual class: inhibitors; VDR-SRC2-3 peptide fluorescence polarization, 2 h; Vitamin D3 receptor (Homo sapiens), P11473; 400,000 compounds, 0.93% hits; active means well fitted inhibition curve with a large enough effect; inconclusive means small, poorly fitted or top-dose-only effect, or another doubt; inactive means no such curve, though single readings can be large or run the other way; further: series mostly up to about 120 µM
# Target sequence (P11473 whole entry, looked up): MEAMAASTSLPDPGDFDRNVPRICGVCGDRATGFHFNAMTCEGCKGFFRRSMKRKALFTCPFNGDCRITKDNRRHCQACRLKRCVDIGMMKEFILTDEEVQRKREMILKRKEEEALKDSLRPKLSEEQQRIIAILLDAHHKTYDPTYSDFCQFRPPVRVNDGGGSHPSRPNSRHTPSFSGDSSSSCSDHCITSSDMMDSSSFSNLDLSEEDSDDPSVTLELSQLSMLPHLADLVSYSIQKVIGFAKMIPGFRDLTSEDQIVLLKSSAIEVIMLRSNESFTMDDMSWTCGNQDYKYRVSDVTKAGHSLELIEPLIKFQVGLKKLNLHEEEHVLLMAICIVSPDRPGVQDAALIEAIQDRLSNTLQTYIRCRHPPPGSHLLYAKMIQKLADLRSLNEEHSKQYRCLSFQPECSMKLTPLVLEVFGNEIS
#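 Fluorescence polarization assay of small-molecule disruption of VDR binding to coregulator peptide SRC2-3. Compounds and controls pin-transferred, then read after 2 h incubation at ambient room temperature.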
# Active calls of the source: *; ? = inconclusive. On the % scale 0 is the no-effect control and ±100 the full control effect; potency means the concentration at half of the fitted maximal effect.
SMILES,VDR inhibitor
O=C(O)C1C2CCC(O2)C1C(=O)NCc1ccc(Cl)cc1 (configuration not stated),-2%
CCOC(=O)Cn1c(=O)c(-c2ccccc2NC)nc2ccccc21,17%
CSCCC(NC(=O)C1CCC(C)CC1)C(=O)N1CCN(c2ccccn2)CC1 (configuration not stated),-2%
Cc1cccc(NC(=O)CCNC(=O)c2ccc(Br)cc2)c1,-26%
Cc1ccc(S(=O)(=O)c2cc3c(=O)n4ccccc4nc3n(CC3CCCO3)c2=N)cc1C (configuration not stated),2%
CCCNC(=O)COc1ccc2c(=O)c(Oc3ccccc3F)coc2c1,2%
CCC(CC)C(=O)Nc1cccc(C(=O)N2CCCCCC2)c1,2%
CC1CCCN(C(=O)CCCC(=O)N2CCCC(C)C2)C1 (configuration not stated),1%
COc1cnc(-c2ccccc2)nc1Oc1ccc(C(C)(C)C)cc1,4%
Cn1c(=O)cc(N)n(-c2ccccc2)c1=O,-6%
COc1cccc(OC)c1C(=O)NCCc1ccccc1,-5%
Cc1csc(N(C(=O)c2cccc(S(=O)(=O)N(C)C)c2)c2ccccc2)n1,27%
CCOC(=O)c1cc(C(C)(C)C)n(CCCN2CCOCC2)c1C,-1%
COc1ccc(C(=O)NC2CCCc3c2cnn3-c2cc(F)cc(F)c2)c(OC)n1 (configuration not stated),-15%
Cc1ccc(C(=O)Nc2ccc(S(=O)(=O)NC3=NCCCCC3)cc2)c(C)c1,7%
Cc1ccc(N2C(=O)c3ccccc3NC2(C(=O)O)c2ccccc2)cc1Cl (configuration not stated),1%
COc1ccccc1CNC(=O)c1cnc2ccccn2c1=O,-1%
CCCCCCC(=O)Nc1nc(C)c(-c2csc(Nc3cccc(OC)c3)n2)s1,-3%
Cc1ccc(NC(=O)c2cnn(-c3ccccc3)c2C)cc1,15%
O=C(NC1CCCCC1)C(c1ccc(F)cc1)N(Cc1ccco1)C(=O)Cn1nnc2ccccc21 (configuration not stated),14%
Cc1c(NC(=O)C(C)OC(=O)COc2ccccc2)c(=O)n(-c2ccccc2)n1C (configuration not stated),-2%
COc1ccc(CCNC(=O)Cn2cc(C(=O)c3ccccc3)c(=O)c3ccc(C)nc32)cc1OC,10%
CCCCC/C=C\C/C=C\C/C=C\CCCCCCC(=O)NC(C)C(=O)O (configuration not stated),?
Cc1csc2nc(NC(=O)c3ccccc3)sc(=O)c12,13%
NC(=O)c1nsc(C(=O)N(c2ccccc2)C(C(=O)NC2CCCC2)c2ccc3ncccc3c2)c1N (configuration not stated),-14%

# Look-ups from the results shown.
# Value for Cc1ccc(N2C(=O)c3ccccc3NC2(C(=O)O)c2ccccc2)cc1Cl (configuration not stated) under VDR inhibitor: 1%
# Value for Cc1c(NC(=O)C(C)OC(=O)COc2ccccc2)c(=O)n(-c2ccccc2)n1C (configuration not stated) under VDR inhibitor: -2%
# Value for CCCCCCC(=O)Nc1nc(C)c(-c2csc(Nc3cccc(OC)c3)n2)s1 under VDR inhibitor: -3%

# The main list resumes, starting 2 compounds before the break.
SMILES,VDR inhibitor
Cc1csc2nc(NC(=O)c3ccccc3)sc(=O)c12,13%
NC(=O)c1nsc(C(=O)N(c2ccccc2)C(C(=O)NC2CCCC2)c2ccc3ncccc3c2)c1N (configuration not stated),-14%
Nc1cccnc1Sc1ccc([N+](=O)[O-])cn1,-24%
COc1cc(CN2CCCCC2)ccc1OCc1ccccc1,-16%
Cc1cc(=O)oc2cc(OCC(=O)OCC(=O)Nc3ccccc3C(C)C)ccc12,0%
COc1cccc(Oc2cncnc2-c2ccc(OC)cc2O)c1,-17%
Cc1ccccc1-n1c(SCc2ccccn2)nc2n[nH]c(C)c2c1=N,-28%
CCN(CC)S(=O)(=O)c1ccc(=O)n(CC(=O)N2Cc3ccccc3CC2C(N)=O)c1 (configuration not stated),11%
Cc1ccc(NC(=O)CCC(C(=O)O)N2C(=O)c3ccccc3C2=O)cc1 (configuration not stated),-19%
Cc1ccccc1N1C(=O)CC2(CCCC2)CC1=O,11%
COc1cc2ccccc2cc1C(=O)Nc1ccc(NC(=O)c2cccs2)cc1,13%
Cc1cc2cc(C)c(SCC(=O)NCc3ccco3)nc2cc1C,-2%
COC(=O)c1ccccc1OCC(=O)NC1CCCCC1,2%
O=Cc1cc2ccccc2nc1SCCCF,-4%
COC(=O)c1ccc(NC(=O)C(=O)NCC(c2cccnc2)N2CCc3ccccc32)cc1 (configuration not stated),4%
CCC1S/C(=N/C(=O)NC2CCCCC2)NC1=O (configuration not stated),-1%
COC(=O)c1ccc(COc2c(F)c(F)cc(F)c2F)o1,-19%
CNS(=O)(=O)c1cn(CC(=O)N2CCN(c3ccc(OC)cc3)CC2)cc1S(=O)(=O)NC,1%
COC(=O)c1ccc(NC(=O)CCS(=O)(=O)c2ccc3c(c2)NC(=O)C(C)S3)cc1 (configuration not stated),?
O=C(Nc1ccccc1)OCC1COC(c2ccccc2)(c2ccccc2)O1 (configuration not stated),-2%
Cc1ccc2oc(-c3ccc(Cl)c(NC(=O)c4ccc(OC(C)C)cc4)c3)nc2c1,-24%
OCCCNc1ncnc2sc(-c3ccccc3)cc12,-2%
COCCn1c(=O)c2c(nc3n2CC(C)CN3CCc2ccccc2)n(C)c1=O (configuration not stated),5%
Cc1cc(OCCCCCn2ccnc2)cc(C)c1Cl,11%
CCOc1ccccc1Nc1nnc(SCc2nnc(-c3cc(OC)c(OC)c(OC)c3)o2)s1,-2%
Cc1nn2c(-c3ccco3)ccnc2c1-c1ccc(Cl)cc1,-12%
O=C(CCC(=O)NCc1ccccc1)NCc1ccccc1,-16%

# 3 compounds already listed, arranged by the value under VDR inhibitor, ascending.
SMILES,VDR inhibitor
Cc1ccccc1-n1c(SCc2ccccn2)nc2n[nH]c(C)c2c1=N,-28%
O=C(Nc1ccccc1)OCC1COC(c2ccccc2)(c2ccccc2)O1 (configuration not stated),-2%
CCC1S/C(=N/C(=O)NC2CCCCC2)NC1=O (configuration not stated),-1%

# Next records follow:
SMILES,VDR inhibitor
COCCn1c(=O)c(-c2cc(F)cc(F)c2)nc2cnc(OC)nc21,-5%
N#Cc1c(NC(=O)c2ccc(N3CCOCC3)c([N+](=O)[O-])c2)sc2c1CCCC2,-10%
O=C(NCc1ccco1)Nc1cccc([N+](=O)[O-])c1,3%
CCOCCCNc1nc(C(F)(F)F)nc2c1nnn2Cc1ccccc1Cl,-12%
COc1cc(S(=O)(=O)N(Cc2cccs2)C2CC2)ccc1-n1cnnn1,-23%
Cc1c(NC(=O)CSc2nncc3ccccc23)c(=O)n(-c2ccccc2)n1C,11%
COc1cccc(C(=O)NCc2nc(-c3ccccc3)no2)c1OC,3%
CCOC(=O)/C(=N\Nc1cc(C(F)(F)F)ccc1Cl)N(CC)CC,?
COc1cccc2cc(-c3n[nH]c(=S)n3C)oc12,3%
COc1ccc(C2CC(=O)C=C(NCCC(C)C)C2)cc1 (configuration not stated),6%
CCCCOc1ccc(Cc2cnc(N)nc2N)cc1,6%
COc1ccc(Br)cc1C(=O)Nc1ccc(NC(=O)c2ccco2)cc1,-14%
O=C(CSc1nc2[nH]ncc2c(=O)[nH]1)Nc1ccccc1,-15%
CC[C@]1(c2ncc[nH]2)Cc2ccccc2O1,7%
O=C(/C=C/c1ccc(Cl)cc1)N1CCN(CCN2C(=O)c3cccc4cccc(c34)C2=O)CC1,-8%
Cc1ccc(-n2nc(C(=O)O)cc2-c2ccc(Cl)cc2)cc1,-2%
OC(CN1CCCCC1)CN(c1ccccc1)c1ccccc1 (configuration not stated),-11%
CCOC(=O)c1sc(NC(=O)CN2C(=O)C3CC=CCC3C2=O)nc1C (configuration not stated),9%
CN(C)S(=O)(=O)c1ccc(NS(=O)(=O)/C=C/c2ccccc2)cc1,7%
CC(=O)c1sc(NC(=O)COc2ccc(Cl)cc2Cl)nc1C,2%
Cc1nn(-c2ccccc2)c(N)c1N=Nc1ccccc1,-2%
CCN1CCN(c2ccc(S(=O)(=O)N3CCOCC3)cc2NC(=O)/C=C/c2ccc(OC)c(OC)c2)CC1,-1%
O=C(CN1C(=O)CSC1=O)c1ccccc1,7%
CCC(C)NC(=S)N1CCN(C)CC1 (configuration not stated),4%
CC(C)CN1CCC(=O)N(CCN=[N+]=[N-])CC1,-5%

# Part of the list above in order of number of heavy atoms, largest number first.
SMILES,VDR inhibitor
O=C(/C=C/c1ccc(Cl)cc1)N1CCN(CCN2C(=O)c3cccc4cccc(c34)C2=O)CC1,-8%
Cc1c(NC(=O)CSc2nncc3ccccc23)c(=O)n(-c2ccccc2)n1C,11%
CCOC(=O)/C(=N\Nc1cc(C(F)(F)F)ccc1Cl)N(CC)CC,?
COc1ccc(C2CC(=O)C=C(NCCC(C)C)C2)cc1 (configuration not stated),6%
O=C(NCc1ccco1)Nc1cccc([N+](=O)[O-])c1,3%

# New compounds follow.
SMILES,VDR inhibitor
COC(=O)c1cn(NC(=O)c2cccc(F)c2)c(=O)c2ccccc12,1%
Cc1[nH]c(=O)c(C#N)c(C)c1CSc1ncccn1,-6%
CC(C)[C@H](NC(=O)c1ccccc1)C(=O)OCC(=O)N1CCCCCC1,-19%
Cc1cccc(N(CC(=O)N2CCN(C)CC2)S(=O)(=O)c2ccccc2)c1,4%
Cc1c(OCC(=O)C(C)(C)C)ccc2c3c(c(=O)oc12)CCCC3,1%
CCN(CC)c1ccc(CN(C(=O)Cc2coc3ccc(C)cc23)C2CCS(=O)(=O)C2)cc1 (configuration not stated),1%
O=C(NCCN1CCOCC1)c1ccc(Cl)c(S(=O)(=O)NCc2ccccc2)c1,-5%
CCOc1ccc(CNC23CN4CN(CN(C4)C2)C3)cc1,17%
Cc1c(Br)cc(C(=O)NCCCN2CCOCC2)c(C)c1C,?
COc1cc2ccccc2cc1C(=O)N1CC(C)OC(C)C1 (configuration not stated),1%
Cc1noc(C)c1C(=O)OC(C)C(=O)Nc1ccc(C(N)=O)cc1 (configuration not stated),-5%
CCOc1ccc(CC(=O)NCCc2csc(-c3ccc(C(F)(F)F)cc3)n2)cc1,10%
O=C(O)/C=C/C(=O)NC1CCS(=O)(=O)C1 (configuration not stated),-28%
CCOC(=O)NN1C(=O)c2ccccc2NC1c1cccnc1 (configuration not stated),2%
CCn1cc(S(=O)(=O)Nc2cccnc2)cn1,-13%
COc1ccc(/C=C/C(=O)O)cc1S(=O)(=O)N1CCc2ccccc2C1,-14%
CSc1cccc(NC(=S)Nc2cc(C)ccc2C)c1,-4%
O=C(O)c1cccc(NC(=O)c2ccccc2NC(=O)c2cccc([N+](=O)[O-])c2)c1,15%
CCCCC(O)(c1ccccc1)C(CN1CCOCC1)c1ccccc1 (configuration not stated),3%
CCCCn1c(C(C)NC(=O)CCC)nc2ccccc21 (configuration not stated),-9%
O=C(CSc1nccn1-c1ccc(F)cc1)NCc1ccc(F)cc1,-3%
CCC(=O)N1CCc2cc(Br)cc(S(=O)(=O)CCC(=O)N3CCN(c4ccccc4F)CC3)c21,4%
COc1ccc(C(=O)c2coc(-c3ccccc3C(=O)O)c2C(=O)O)cc1,-1%
O=C(Sc1nnc(-c2ccccc2)o1)N1c2ccccc2Sc2ccccc21,9%
C/C(=N\NC(=O)c1cccc2ccccc12)c1ccccn1,-9%

# (continued)
SMILES,VDR inhibitor
CCOC(=O)c1nnc(-c2ccc(C)cc2)nc1N1CCSCC1,7%
CC(C)(C)S(=O)(=O)c1cnc(N2CCCC2)nc1N,4%
Cc1ccc(CNC(=O)c2nc(SCc3ccc(F)cc3)ncc2Cl)cc1,4%
Cn1c(CC(=O)Nc2ccc(Cl)c(Cl)c2)n[nH]c1=S,1%
COc1ccccc1N1CCN(c2nc3ccccn3c(=O)c2C=O)CC1,17%
COC(=O)c1cc(S(=O)(=O)NCc2ccc(F)cc2)cn1C,-2%
CC1CCN(C(=O)c2ccc(N3CCOCC3)c([N+](=O)[O-])c2)CC1,3%
Cn1c(=O)c2c(nc(NCCNC(=O)c3ccco3)n2Cc2ccccc2F)n(C)c1=O,8%
CC(C)CCn1c(=O)c2sccc2n2c(CCCC(=O)NC3CCC(C)CC3)nnc12 (configuration not stated),7%
CCOc1ccccc1-n1nnnc1SCc1nc2ccccc2s1,-12%
O=C(O)Cc1sc(-c2cccnc2)nc1-c1ccc(Br)cc1,-27%
CCN(CC)c1ccc(NC(=O)Cn2cc3c(n2)CCC(C)C3)c(C)c1 (configuration not stated),1%
Cc1ccccc1-n1nnnc1Sc1nnnn1-c1ccccc1,6%
COc1ccc(-c2nn(-c3ccccc3)cc2/C=C/C(=O)OCC(=O)Nc2cccc(C#N)c2)cc1,-6%
COc1ccc(C/C(C)=N/NC(=O)C2COc3ccccc3O2)cc1 (configuration not stated),11%
Cc1ccc(NC(=O)CCn2nnc3ccccc32)cc1,19%
O=C(c1cc(Cl)ccc1O)N1CCN(S(=O)(=O)c2cccs2)CC1,-2%
O=S1(=O)CC2SC(=S)N(c3ccccc3)C2C1 (configuration not stated),-25%
COC(=O)c1cccc(CSc2nc3ccccc3[nH]2)c1,-4%
O=C(CSc1nnc2ccc3ccccc3n12)N1CCOCC1,-14%
O=C(NCCc1c[nH]c2ccccc12)C1CCN(c2nnc(N3CCCC3=O)s2)CC1,5%
O=C(O)c1ccc(NC(=O)c2ccco2)c(NC(=O)c2ccco2)c1,?
O=c1c2ccccc2nc(SCc2ccccc2)n1CC1CCCO1 (configuration not stated),0%
CCCSc1ncc(Cl)c(C(=O)Nc2c(C(=O)c3ccc(F)cc3)oc3ccccc23)n1,-6%
COc1nccnc1NS(=O)(=O)c1ccc(NC(=O)c2ccc(F)cc2)cc1,13%

# Source: PubChem BioAssay

# Only part of the results is shown, so the mix of outcomes need not match the whole.
